RGS16-Gao HTS: modulates binding between human RGS16 and Galphao | O15492+P09471 | bead-based flow cytometry RGS16-Galphao binding, fluorescence; actives lie on both sides | binding response (% of control), % at 10 µM | 220,000 tested, 0.38% active;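 active = below 25% or above 175%, edge rows of some plates excepted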;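 note: Galphao activated by GDP with aluminum fluoride before binding; 100% = wells without compound and 0% = beads without RGS; some results beyond the cut were filed as inactive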
PKD1 kinase inh: inhibitors of human PKD1 kinase | AID 797 | Q15139 | PKD1 kinase fluorescence polarization assay | 200,000 tested, 0.056% active | inhibition, %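 (about 10 µM by stock and volumes)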;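 active = inhibition of 50% or more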;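 note: controls were vehicle for no effect and a reference inhibitor for full effect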
Target sequence (Q15139 whole entry, looked up): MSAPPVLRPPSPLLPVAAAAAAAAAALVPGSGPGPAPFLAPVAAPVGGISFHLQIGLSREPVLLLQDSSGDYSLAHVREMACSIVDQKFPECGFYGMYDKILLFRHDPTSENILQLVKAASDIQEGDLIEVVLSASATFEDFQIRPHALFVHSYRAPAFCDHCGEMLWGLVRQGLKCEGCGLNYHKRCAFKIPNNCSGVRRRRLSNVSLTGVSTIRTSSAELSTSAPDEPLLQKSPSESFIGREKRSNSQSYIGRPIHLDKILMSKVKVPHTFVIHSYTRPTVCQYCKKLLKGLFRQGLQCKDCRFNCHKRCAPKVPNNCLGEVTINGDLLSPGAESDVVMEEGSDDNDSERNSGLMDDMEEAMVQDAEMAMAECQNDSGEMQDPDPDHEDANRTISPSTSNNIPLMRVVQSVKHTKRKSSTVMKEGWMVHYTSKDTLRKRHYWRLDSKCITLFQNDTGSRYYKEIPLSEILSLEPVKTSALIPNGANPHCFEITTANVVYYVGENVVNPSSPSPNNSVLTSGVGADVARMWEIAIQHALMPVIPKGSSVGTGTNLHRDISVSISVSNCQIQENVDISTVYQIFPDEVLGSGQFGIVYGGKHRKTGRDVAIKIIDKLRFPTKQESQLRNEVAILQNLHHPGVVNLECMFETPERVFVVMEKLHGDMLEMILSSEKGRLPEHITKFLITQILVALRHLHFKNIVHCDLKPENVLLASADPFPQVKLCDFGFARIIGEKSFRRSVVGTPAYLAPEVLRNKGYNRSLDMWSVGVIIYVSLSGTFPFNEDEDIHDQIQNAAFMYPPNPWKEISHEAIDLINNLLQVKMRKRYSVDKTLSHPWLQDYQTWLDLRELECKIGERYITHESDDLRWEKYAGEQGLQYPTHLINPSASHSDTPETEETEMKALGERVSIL
HSV augment: increases HSV replication in cells; HSV replication augmentation in cells, fold increase; maximum fold increase; 220,000 tested, 0.005% active;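 active = peak rise of 1.5-fold or more in the series; inconclusive = self-fluorescent or not available for retest; tested in PC3 cells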;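 note: first round at 10 µM; read as green reporter fluorescence; hits show the peak of a series up to 25 µM; 1 = signal of infected wells without compound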
Insulin prom inh: TRM-6 insulin promoter activity inhibition; TRM-6 cells (human fetal islet line), insulin promoter-eGFP reporter, imaging; reporter expression induced with tamoxifen; inhibition, % at 2 µM; 130,000 tested, 0.9% active; AID 1273;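 active = inhibition above the mean plus 3 SD, with well images judged a real hit on visual review, cut at about 60% in these data, passing the limit was not always enough; inconclusive = inhibition over the cutoff but images rejected on review; inactive = inhibition not above the cutoff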
GALR2 ag: activates the human galanin receptor 2; O43603; GALR2-expressing cells, agonist activation read-out; activation, %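 (tested at 5 µM)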; 140,000 tested, 0.48% active; AID 803;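 active = above mean plus 3 SD of all compounds, about 5% in these data, not always enough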;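 note: 0% = vehicle buffer wells and 100% = reference agonist at full effect; tested in CHO reporter cells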
Insulin prom inh cell count: second read-out of Insulin prom inh, no call of its own (marks repeat the call); normalized cell count, %; measured here: cell count, toxicity; reference of the scale not given here;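 cells exposed to compound for 48 h; stained nuclei by imaging scaled within each plate; lower means fewer cells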
HSV augment primary fold: also measured in HSV augment; calls as there; fold increase; compound at 10 µM; measured here: primary screen fold increase 10 uM; tested in PC3 cells;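 GFP signal in the first replicate; 1 = infected wells without compound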
Starred values were filed as active, the others as inactive; i = inactive; ? = inconclusive; . = no result given. Not a hit list, and some 1.3% of all compounds hit somewhere here.

no.	Molecule	RGS16-Gao HTS	PKD1 kinase inh	HSV augment	HSV augment primary fold	Insulin prom inh	Insulin prom inh cell count	GALR2 ag
1	O=C1CSC(c2ccccc2)N1CC(O)c1ccc([N+](=O)[O-])cc1 (configuration not stated)	110	-3	i	1	6	118	.
2	O=C(COc1ccc(Cl)cc1Cl)OCn1nnc2ccccc2c1=O	100	-17	i	0.98	19	145	7.1
3	CCN1CCC(=NNC(=O)c2ccc(C)c([N+](=O)[O-])c2)CC1	102	-6	i	0.9	-18	89	-1.0
4	C[C@H](NC(=O)c1ccccc1)C(=O)Nc1nc(-c2ccccn2)cs1	113	-9	i	0.95	-33	123	.
5	CCCC(=O)Nc1c(-c2ccccc2OC)c(=O)c2ccccc2n1C	96	.	i	1.1	.	.	.
6	C[C@@H](C(=O)O)[C@H]1C[C@]1(C)[C@H](NC(=O)OCc1ccccc1)c1ccccc1	120	-2	i	0.96	-18	62	-3.4
7	O=C(NC(=S)N1CCOCC1)C12CCC3CC(CC(C3)C1)C2	99	-2	i	1	-6	92	0.6
8	CCc1ccc(C(=O)NNc2ccc(F)cc2F)cc1	92	.	i	0.9	.	.	.
9	O=C(NC1CCCCC1)C(c1ccc2ncccc2c1)N(Cc1ccco1)C(=O)c1ccc2c(c1)OCCO2 (configuration not stated)	98	-3	i	0.94	-20	133	-0.7
10	COC(=O)c1ccc2nc(-c3ccc4c(c3)OCO4)cn2c1	97	-4	i	1.1	.	.	.
11	O=C1C(CCS(=O)c2ccccc2)C(=O)N(c2ccccc2)N1c1ccccc1 (configuration not stated)	98	-9	i	0.95	-195	91	0.4
12	COc1ccc(CNC(=O)/C=C/c2ccc(OCCCF)cc2)cc1	105	4	i	0.93	-10	103	-1.9
13	O=C(NCc1ccc(Cl)cc1)c1ccc(-n2cccn2)nc1	103	-3	i	0.97	19	132	.
14	COc1c(Cl)cc(C(=O)Nc2ccccc2-c2ccccc2)cc1Cl	101	-5	.	.	-10	130	-2.1
15	CCCCC(=O)Nc1nnc(SCC(=O)N2CCN(c3ccccc3OC)CC2)s1	99	-3	i	0.84	-48	84	0.0
16	Cc1nc2sc3c(c2c2nnc(SCC(=O)NCc4ccco4)n12)CCCC3	82	-7	i	1.1	-28	132	1.7
17	O=C1c2ccsc2SCCN1Cc1cccc(Cl)c1	80	-8	i	0.96	19	107	-1.7
18	Cc1cccc2cc(C(c3nnnn3CC3CCCO3)N3CCCC4(CCCCC4)C3)c(=O)[nH]c12 (configuration not stated)	87	-20	i	1	.	.	-1.1
19	COc1cc(OC)c2c(-c3ccccc3)cc(=O)oc2c1C(CC(=O)N1CCOCC1)c1ccc(N(C)C)cc1 (configuration not stated)	109	.	i	0.79	.	.	.
20	Cc1cccc(CCNC(=O)CC2C(=O)NCCN2Cc2ccc(F)c(F)c2)n1 (configuration not stated)	108	5	i	0.98	-13	106	.
21	CCOc1ccc(CNC(=O)CCS(=O)(=O)Cc2cccc(Cl)c2)cc1OC	101	-7	i	0.83	29	98	.
22	Cc1ccc(-n2nc3c(=S)[nH]nc(C)c3c2C)cc1	110	-8	.	.	.	.	0.1
23	CNC(=S)N1CCn2cccc2C1c1ccc(F)cc1 (configuration not stated)	100	-1	i	1.1	.	.	.
24	COc1cccc(CSc2nnc(-c3ccc(F)cc3)o2)c1	103	-7	i	0.99	-6	91	-1.4
25	Cc1ccc(-n2ncc3c(=O)n(CC(=O)Nc4cccc(Cl)c4)cnc32)cc1C	98	-1	?	.	-14	126	0.9
26	Cc1nn(-c2ccccc2)c(C)c1C(=O)OCC(=O)c1c(N)n(CC(C)C)c(=O)n(C)c1=O	106	-12	i	0.68	.	.	-1.1
27	COc1ccc(CCNC(=O)c2cc(-c3ccccn3)nc3c(Cl)cccc23)cc1OC	97	6	i	1	-5	77	.
28	O=C(Nc1cc(Cl)ccc1O)c1cc2n(n1)C(C(F)(F)F)CC(c1ccc3c(c1)OCO3)N2 (configuration not stated)	98	-16	i	0.89	0	163	-0.5
29	COc1cc(/C=N/NC(=O)CNC(=O)c2ccccc2)ccc1OC(=O)c1cccs1	99	1	i	0.86	.	.	0.0
30	Cc1ccc(C(=O)c2cc3c(cc2N)OCCO3)cc1	101	9	i	0.78	.	.	-1.1
31	NC(=O)C1CCN(C(=O)c2cc3ccccn3n2)CC1	67	-6	i	0.97	.	.	-4.2
32	CC(=O)/C(=N\Nc1cccc(Cl)c1)Sc1nnc(-c2ccccc2)n1-c1ccccc1	165	-9	i	1.1	-61	60	-0.2
33	O=C(C(Cc1ccccc1)N1C(=O)c2ccccc2C1=O)N1c2ccccc2CCc2ccccc21 (configuration not stated)	101	3	i	1	-20	127	-1.8
34	COc1ccc(-c2ccc(S(=O)(=O)N3CCCC3)cc2)cc1	91	-3	i	1.1	53	79	.
35	COc1ccc2[nH]c(C)c(C(=O)CN3CCN(C(=O)c4ccco4)CC3)c2c1	101	-2	i	1	.	.	0.2
36	Cn1c(=O)cc(Nc2ccccc2)c2c(=O)n(-c3ccccc3)c(=O)n(-c3ccccc3)c21	102	.	i	0.98	.	.	.
37	CCOC(=O)COc1cccc2c(=O)n(CC(=O)NCc3ccccc3)ccc12	98	.	i	0.74	.	.	.
38	Cc1ccc(S(=O)(=O)N2CCCCC2)cc1NC(=O)COC(=O)Cc1c(F)cccc1Cl	170	-4	i	0.94	52	93	-0.4
39	Cc1nn(C)c(Oc2cccc(C(F)(F)F)c2)c1C=O	106	5	i	1	12	154	.
40	O=C(O)CN1C(=O)c2ccc(Oc3cccc4c3C(=O)N(CC(=O)O)C4=O)cc2C1=O	98	-3	i	1	-18	88	-0.4
41	O=CN1CCCN(Cc2nc(Cc3ccccc3F)no2)CC1	101	-8	i	0.95	67	70	.
42	COc1ccc(C(=O)Cc2cc(OC)c(OC)cc2C(=O)c2ccccc2F)cc1OC	102	-2	i	0.96	.	.	.
43	COc1cccc(CN2CCN(c3ncccn3)CC2)c1	102	1	i	0.84	.	.	-0.3
44	O=C1CSC(c2cn(-c3ccccc3)nc2-c2cc3ccccc3oc2=O)N1Cc1cccnc1 (configuration not stated)	102	4	i	0.7	-35	119	0.3
45	COc1cc2c(cc1OC)CN(C(=O)CSc1nc3[nH]ncc3c(=O)n1-c1ccccc1)CC2	104	-2	i	0.99	.	.	-2.4
46	Cc1ccc(N2C(=O)CSC2c2c(F)cccc2Cl)cc1 (configuration not stated)	101	4	i	1.1	18	81	-2.6
47	CCCNC(=O)c1ccc(C2SCC(=O)N2Cc2ccccc2)cc1 (configuration not stated)	94	-11	i	1	2	80	-0.5
48	CCCC(=O)Nc1ccc(Cl)c(NC(=O)c2ccco2)c1	88	-1	i	0.94	-48	134	-1.5
49	O=C(NNS(=O)(=O)c1ccc(CCCl)cc1)C(O)(c1ccccc1)c1ccccc1	126	-11	i	1.1	.	.	-0.9
50	Cc1cc(NC(=O)CCN2C(=O)C3C4CCC(C4)C3C2=O)cc(C)c1Br (configuration not stated)	.	-2	i	0.86	.	.	-0.3

(listing goes on)
no.	Molecule	RGS16-Gao HTS	PKD1 kinase inh	HSV augment	HSV augment primary fold	Insulin prom inh	Insulin prom inh cell count	GALR2 ag
51	Cc1occc1-c1nnc(SCC(=O)NCc2ccc3c(c2)OCO3)n1CC(C)C	98	-8	i	0.95	.	.	-0.2
52	CCOc1ccc2[nH]c(=O)c(C(c3nnnn3Cc3ccco3)N3CCN(C)CC3)cc2c1 (configuration not stated)	107	-9	i	1	4	131	.
53	Cc1ccc(CN=C(N)Nc2nc(C)cc(C)n2)cc1	104	-8	i	0.73	.	.	.
54	COc1ccc(Oc2coc3cc(OC(=O)c4cncc(Br)c4)ccc3c2=O)cc1	100	10	i	1.1	-31	103	-1.8
55	O=C(NCCc1nnc2ccc(NCc3cccnc3)nn12)c1ccccc1F	99	-5	i	0.99	-17	115	.
56	CCO[C@@H]1OC(C(=O)NCc2ccccc2)=C[C@H](C2CCCCC2)[C@H]1CCCO	97	-5	i	0.83	.	.	.
57	CC(=O)/C(C#N)=C1\NC(=O)C(Cc2cc(Cl)ccc2Cl)S1 (configuration not stated)	97	.	i	1.3	.	.	.
58	O=C(NC1CCc2ccccc21)C1CCN(S(=O)(=O)c2ccc(Cl)cc2)CC1 (configuration not stated)	78	-1	i	0.9	-19	123	-1.4
59	Fc1ccc(N2CCN(c3ncnc4c3nnn4Cc3ccccc3Cl)CC2)cc1	38	-2	i	0.98	38	150	-2.0
60	CCN1CCCC1CNC(=O)c1cc(NC(C)=O)c(N(C)C)cc1OC (configuration not stated)	99	11	i	0.96	12	122	-1.7

Whole records as entered above:
Profile of `CCOc1ccc2[nH]c(=O)c(C(c3nnnn3Cc3ccco3)N3CCN(C)CC3)cc2c1` (configuration not stated) → RGS16-Gao HTS: 107; PKD1 kinase inh: -9; HSV augment: i; HSV augment primary fold: 1; Insulin prom inh: 4; Insulin prom inh cell count: 131; GALR2 ag: .
Profile of `Cc1ccc(CN=C(N)Nc2nc(C)cc(C)n2)cc1` → RGS16-Gao HTS: 104; PKD1 kinase inh: -8; HSV augment: i; HSV augment primary fold: 0.73; Insulin prom inh: .; Insulin prom inh cell count: .; GALR2 ag: .

Grouped by structure: those above containing fluorine.
no.	Molecule	RGS16-Gao HTS	PKD1 kinase inh	HSV augment	HSV augment primary fold	Insulin prom inh	Insulin prom inh cell count	GALR2 ag
8	CCc1ccc(C(=O)NNc2ccc(F)cc2F)cc1	92	.	i	0.9	.	.	.
12	COc1ccc(CNC(=O)/C=C/c2ccc(OCCCF)cc2)cc1	105	4	i	0.93	-10	103	-1.9
20	Cc1cccc(CCNC(=O)CC2C(=O)NCCN2Cc2ccc(F)c(F)c2)n1 (configuration not stated)	108	5	i	0.98	-13	106	.
23	CNC(=S)N1CCn2cccc2C1c1ccc(F)cc1 (configuration not stated)	100	-1	i	1.1	.	.	.
24	COc1cccc(CSc2nnc(-c3ccc(F)cc3)o2)c1	103	-7	i	0.99	-6	91	-1.4
28	O=C(Nc1cc(Cl)ccc1O)c1cc2n(n1)C(C(F)(F)F)CC(c1ccc3c(c1)OCO3)N2 (configuration not stated)	98	-16	i	0.89	0	163	-0.5
38	Cc1ccc(S(=O)(=O)N2CCCCC2)cc1NC(=O)COC(=O)Cc1c(F)cccc1Cl	170	-4	i	0.94	52	93	-0.4
39	Cc1nn(C)c(Oc2cccc(C(F)(F)F)c2)c1C=O	106	5	i	1	12	154	.
41	O=CN1CCCN(Cc2nc(Cc3ccccc3F)no2)CC1	101	-8	i	0.95	67	70	.
42	COc1ccc(C(=O)Cc2cc(OC)c(OC)cc2C(=O)c2ccccc2F)cc1OC	102	-2	i	0.96	.	.	.
46	Cc1ccc(N2C(=O)CSC2c2c(F)cccc2Cl)cc1 (configuration not stated)	101	4	i	1.1	18	81	-2.6
55	O=C(NCCc1nnc2ccc(NCc3cccnc3)nn12)c1ccccc1F	99	-5	i	0.99	-17	115	.
59	Fc1ccc(N2CCN(c3ncnc4c3nnn4Cc3ccccc3Cl)CC2)cc1	38	-2	i	0.98	38	150	-2.0

Compound activity deposited in PubChem by several laboratories.
